Screens deposited in PubChem by National Center for Advancing Translational Sciences (NCATS).
VACV Venus inh = vaccinia inhibition (Venus reporter); Potency, µM (top dose mostly 36.5 µM), without a hit: at the top dose activity change, negative = inhibition, usual class: inhibitors; 330,000 compounds, 0.46% hits; Vaccinia virus Venus reporter expression, fluorescence; active means well fitted inhibition curve with a large enough effect; inconclusive means small, poorly fitted or top-dose-only effect; inactive means no such curve, though single readings can be large or run the other way; tested in A549 cells; note: nearly all actives have a fitted effect of over 30% in size; inactives centre near -10
VACV mCherry inh = vaccinia inhibition (mCherry reporter); 310,000 compounds, 0.63% hits; Vaccinia virus mCherry reporter infection, fluorescence; about a quarter of the inactives have no number; AID 720579; Potency, µM (top dose mostly 36.5 µM), inactives show at the highest dose activity change, negative = inhibition, actives largely listed as inhibitors; active = well fitted inhibition curve with a large enough effect; inconclusive = small, poorly fitted or top-dose-only effect; inactive = no such curve, though single readings can be large or run the other way; tested in A549 cells; note: nearly all actives have a fitted effect of over 35% in size; inactives centre near -10
* hit, by the source's call; [ ] = another dose, or the depositor's remark. % is set by controls: 0 for no effect and ±100 for the full control effect; potency is the fitted concentration of half-maximal effect. An unsorted share of the library. Share with any hit: about 0.82%.

For Cc1c(Br)c(=O)oc2c(Br)c(O)ccc12 the results were VACV Venus inh 12% and VACV mCherry inh 4%.
Screening Cc1ccc(Cl)cc1N1CCN(C(=O)C2CCN(S(=O)(=O)c3c(C)noc3/C=C/c3ccccc3F)CC2)CC1 returned VACV Venus inh -10%[7.34 µM] and VACV mCherry inh -8%[7.34 µM].
For Cc1ccc(Oc2ncnc3sccc23)cc1 the results were VACV Venus inh -8% and VACV mCherry inh -17%.
Screening Cc1cccc(OCCC(=O)OCC(=O)N2CCc3ccccc32)c1 returned VACV Venus inh -2% and VACV mCherry inh -11%.
COc1cc(C2CC(=O)c3c([nH]c(C(=O)OCc4ccc(C)cc4)c3C)C2)cc(OC)c1OC (stereo unspecified) was read as VACV Venus inh -29%[7.34 µM] and VACV mCherry inh inconclusive.
`Cc1ccc(S(=O)(=O)Nc2ccc3c4c(cccc24)CC3)c(C)c1` gave VACV Venus inh -29% and VACV mCherry inh inconclusive.
`Cc1ccn(C(CC(=O)c2ccc(Br)cc2)C(=O)O)n1` (stereo unspecified) gave VACV Venus inh -3% and VACV mCherry inh -16%.
For Cc1ccc(NC(=S)Nc2cccc(S(=O)(=O)Nc3c(C)n(C)n(-c4ccccc4)c3=O)c2)cc1 the results were VACV Venus inh 8% and VACV mCherry inh 4%.
`Cc1cc([N+](=O)[O-])nn1CC(=O)N1CCOCC1` gave VACV Venus inh -14% and VACV mCherry inh -2%.
`COc1ccc(NC(=S)Nc2ccc3nsnc3c2)cc1` gave VACV Venus inh -7% and VACV mCherry inh inactive.
For COc1cccc(NC(=O)CC2Nc3cc(C)c(C)cc3NC2=O)c1 (stereo unspecified) the results were VACV Venus inh -22% and VACV mCherry inh -14%.
`COc1ccc(C(=O)c2oc3ccccc3c2NC(=O)COc2cccc(C)c2C)cc1` gave VACV Venus inh -8% and VACV mCherry inh -15%.
`Cc1cc(Cl)ccc1C(=O)C1CCCN(C(=O)c2ccoc2)C1` (stereo unspecified) gave VACV Venus inh -10% and VACV mCherry inh inactive.
`Brc1ccccc1OCCOCCOc1cccc2cccnc12` gave VACV Venus inh -27%.
Screening O=C(Cn1c(=O)oc2ccccc21)N1CCN(c2ccc(N3CCOCC3)nn2)CC1 returned VACV Venus inh 1% and VACV mCherry inh inactive.

Reprinted at random: 3 entries already listed.
`Cc1ccn(C(CC(=O)c2ccc(Br)cc2)C(=O)O)n1` (stereo unspecified) gave VACV Venus inh -3% and VACV mCherry inh -16%.
Screening Cc1cccc(OCCC(=O)OCC(=O)N2CCc3ccccc32)c1 returned VACV Venus inh -2% and VACV mCherry inh -11%.
`Cc1cc(Cl)ccc1C(=O)C1CCCN(C(=O)c2ccoc2)C1` (stereo unspecified) gave VACV Venus inh -10% and VACV mCherry inh inactive.

Next part.
Screening CCOc1ccc(S(=O)(=O)Nc2ccc(C(=O)NCC(c3ccco3)N3CCCCC3)cc2)cc1 (stereo unspecified) returned VACV Venus inh -20% and VACV mCherry inh inconclusive.
Screening CCCNC(=O)c1onc(CSc2ccccc2)c1C(=O)NCCC returned VACV Venus inh -5% and VACV mCherry inh inactive.
CC1=C(C(=O)OCc2ccc3c(c2)OCO3)C(c2ccc(Cl)cc2)NC(=O)N1 (stereo unspecified) was read as VACV Venus inh inconclusive and VACV mCherry inh inconclusive.
Screening CCOC(=O)c1ccc(NC(=O)c2ccnn2C)cc1 returned VACV Venus inh -13% and VACV mCherry inh -14%.
`O=C(Nc1ccc2c(c1)nc1n2CCCCC1)c1cc(S(=O)(=O)N2CCOCC2)ccc1Cl` gave VACV Venus inh inconclusive.
Screening COc1ccccc1N1C(N)=NC(N)=NC12CCCCC2 returned VACV Venus inh -8% and VACV mCherry inh 0%.
For Cc1[nH]n(-c2ccc(Cl)cc2)c(=O)c1C=NC12CN3CN(CN(C3)C1)C2 the results were VACV Venus inh -4% and VACV mCherry inh -8%.
Screening CCOC(=O)C1CCN(C(=O)Cn2cnc3sc(C)c(S(=O)(=O)N4CCCCC4)c3c2=O)CC1 returned VACV Venus inh -13% and VACV mCherry inh -21%.
CCn1cc(C(=O)Nc2ccc(Cl)cc2Cl)cn1 was read as VACV Venus inh -7% and VACV mCherry inh inactive.
`O=C(OCc1cccc(Cl)c1)c1cc([N+](=O)[O-])ccc1N1CCOCC1` gave VACV Venus inh inconclusive and VACV mCherry inh inconclusive.
Cc1ccc(-c2nc(CN3CCN(C(=O)C4CCCO4)CC3)cs2)cc1 (stereo unspecified) was read as VACV Venus inh -20% and VACV mCherry inh inactive.
Screening CCNC(=O)C(=O)N1CCC2(CC1)OCCN2S(=O)(=O)c1ccc(C)cc1 returned VACV Venus inh -12% and VACV mCherry inh inactive.
For CCc1ccccc1Nc1nc2ccccc2n1C(C)C the results were VACV Venus inh -8% and VACV mCherry inh 0%.
For c1ccc(-c2n[nH]c(-c3ccccn3)n2)cc1 the results were VACV Venus inh -19% and VACV mCherry inh inconclusive.
COC/C=C/C1=CC2=CC(=O)C(C)(OC(=O)c3cnc4ccccc4n3)C(=O)C2=CN1CC(C)C (stereo unspecified) was read as VACV Venus inh -14% and VACV mCherry inh inactive.
For COc1ccc(CNC(=O)OCCN2CCN(S(=O)(=O)c3ccc(C)cc3)CCC2=O)cc1 the results were VACV Venus inh -23% and VACV mCherry inh inactive.
For C=C1C([C@@]2(C)C(OC(C)=O)CC(=O)O[C@@](C)(COC(C)=O)C2CC(=O)OC)C(OC=O)C(OC(=O)C(OC(C)=O)C(C)CC)[C@]2(C)C(c3ccoc3)CC(=O)C12O (stereo partly specified) the results were VACV Venus inh 3% and VACV mCherry inh -12%.
`CC(=O)Oc1ccc2ccc(=O)oc2c1` gave VACV Venus inh 0.0025µM* and VACV mCherry inh 100µM*.
`O=S(=O)(c1ccc(F)c(F)c1F)N1CCN(c2ncnc3sccc23)CC1` gave VACV Venus inh inconclusive and VACV mCherry inh inconclusive.
Screening CCOC(=O)C1=C(CN2CCCCCC2)NC(=O)NC1c1ccc2c(c1)OCO2 (stereo unspecified) returned VACV Venus inh 4% and VACV mCherry inh inactive.
O=C(O)C1=C[C@H](c2ccc(F)cc2)C[C@H](OCCCCO)O1 was read as VACV Venus inh -13% and VACV mCherry inh -14%.
O=C(N/N=C/C(Br)=C/c1ccccc1)c1cccs1 was read as VACV Venus inh -3% and VACV mCherry inh -10%.
Cc1nc(C)c(C(=O)NNS(=O)(=O)c2ccc([N+](=O)[O-])cc2)s1 was read as VACV Venus inh 2% and VACV mCherry inh inactive.
For CC(C)(C)c1ccc(C(=O)Nc2ccc(NC(=O)c3ccco3)cc2)cc1 the results were VACV Venus inh inconclusive and VACV mCherry inh -23%.
`COCC1CCN(C(=O)C2CCN(c3nc(-c4ccccc4)nc4c3CCC4)CC2)C1` (stereo unspecified) gave VACV Venus inh -26% and VACV mCherry inh -14%.
`Cc1cc(C)c(NC(=O)CN2C(=O)NC(CCc3ccccc3)C2=O)c(C)c1` (stereo unspecified) gave VACV Venus inh inconclusive and VACV mCherry inh inconclusive.
`COc1ccc(/C=N/S(=O)(=O)CCc2ccccc2)c(OC)c1` gave VACV Venus inh -11% and VACV mCherry inh -15%.
For O=C(N/N=C/c1ccccc1[N+](=O)[O-])c1ccncc1 the results were VACV Venus inh -2% and VACV mCherry inh -11%.
`O=C1/C(=C\c2ccc(O)c(O)c2)C(c2ccccc2)=NN1c1ccccc1` gave VACV Venus inh -23% and VACV mCherry inh -20%.
Screening OCCC1CN(Cc2cn[nH]c2C2CCCCC2)CCN1C1CCCCC1 (stereo unspecified) returned VACV Venus inh 4% and VACV mCherry inh 8%.
For Cc1cc(-c2nn(-c3ccccc3F)cc2CNCCc2cnccn2)c(C)s1 the results were VACV Venus inh -18% and VACV mCherry inh inactive.
CN(C)S(=O)(=O)N1CCN(c2ccc([N+](=O)[O-])c(N3CCCCC3)c2)CC1 was read as VACV Venus inh -3% and VACV mCherry inh -10%.
`Cc1c(C(=O)Nc2ccc3c(c2)OCO3)oc2ccccc12` gave VACV Venus inh 0% and VACV mCherry inh -9%.
`CN1C[C@@H]2[C@@H]3C(=O)N(C)C(=O)[C@@H]3[C@](C)(C1=O)N2C(=O)c1ccc(F)cc1` gave VACV Venus inh -4% and VACV mCherry inh inactive.
For CN(C)C(=S)SCCn1c(N)nc(N(C)C)nc1=O the results were VACV Venus inh -4% and VACV mCherry inh -4%.
For Cc1ccc(CNC(=O)C2CCN(S(=O)(=O)c3c(C)noc3C)CC2)cc1 the results were VACV Venus inh -15% and VACV mCherry inh -23%.
`CCOC(=O)c1c(N/N=C/c2ccncc2)n[nH]c1C` gave VACV Venus inh -4% and VACV mCherry inh inconclusive.
For Cc1ccc(S(=O)(=O)N(C)C)cc1NC(=O)COC(=O)CCC1CCCCC1 the results were VACV Venus inh 3% and VACV mCherry inh -14%.
Cc1ccc(-c2nnn(CC(=O)N(CCO)C(C(=O)NC(C)(C)C)c3ccncc3)n2)cc1 (stereo unspecified) was read as VACV Venus inh -4% and VACV mCherry inh inactive.
`CCCS(=O)(=O)c1nc(S(=O)(=O)c2ccc(C)cc2)c(N2CCC(C)CC2)s1` gave VACV Venus inh -2%[7.34 µM] and VACV mCherry inh -19%[7.34 µM].
Screening Cc1cc2c(C(C)C)c(O)c(O)c(C=O)c2c(O)c1-c1c(C)cc2c(C(C)C)c(O)c(O)c(C=O)c2c1O returned VACV Venus inh 4µM* and VACV mCherry inh 4.5µM*.
For O=C(NC12CC3CC(CC(C3)C1)C2)c1ccc(-c2ccc(Br)cc2)o1 the results were VACV Venus inh -29% and VACV mCherry inh -7%.
S=C(c1cn(CCOc2ccccc2)c2ccccc12)N1CCCC1 was read as VACV Venus inh inconclusive and VACV mCherry inh inconclusive.
`N#CCSc1nnc2ccc3ccccc3n12` gave VACV Venus inh -20%.
Screening O=C(CCC1CCCN(C(=O)C2CCCC2)C1)NCc1ccc(F)c(F)c1 (stereo unspecified) returned VACV Venus inh -11% and VACV mCherry inh -15%.

Compounds above that have an aryl thioether with sulfur outside any ring (two):
Screening CCCNC(=O)c1onc(CSc2ccccc2)c1C(=O)NCCC returned VACV Venus inh -5% and VACV mCherry inh inactive.
`N#CCSc1nnc2ccc3ccccc3n12` gave VACV Venus inh -20%.

Next section:
CCNc1nc(NCC)n2c(SCC(=O)Nc3ccc(Br)cc3F)nnc2n1 was read as VACV Venus inh -16% and VACV mCherry inh -3%.
Screening O=S(=O)(NCCN1CCOCC1)c1ccc(Cl)s1 returned VACV Venus inh -3% and VACV mCherry inh inactive.
Screening CC(=O)Nc1cccc(NC(=O)COc2nncc3ccccc23)c1 returned VACV Venus inh -9% and VACV mCherry inh inactive.
Screening O=C(Cn1cccn1)N1CCCC(N2CCN(c3ccccc3F)CC2)C1 (stereo unspecified) returned VACV Venus inh -1% and VACV mCherry inh inactive.
`COCCNC(=O)c1onc(CSc2ccc(C)c(C)c2)c1C(=O)O` gave VACV Venus inh -12% and VACV mCherry inh -14%.
O=C(Nc1nnc(C2=COCCO2)o1)c1ccc(Cl)cc1 was read as VACV Venus inh -12% and VACV mCherry inh inconclusive.
`O=C(Nc1ccc(S(=O)(=O)Nc2cnc3ccccc3n2)cc1)c1ccc(F)cc1` gave VACV Venus inh -2% and VACV mCherry inh inactive.
For Cc1nn(-c2ccccc2)c(Cl)c1C(=O)NCCCCNC(=O)c1c(C)nn(-c2ccccc2)c1Cl the results were VACV Venus inh -9%.
COc1ccc(CNC(=O)CCC(=O)N2CCN(S(=O)(=O)c3cc([N+](=O)[O-])ccc3C)CC2)cc1 was read as VACV Venus inh -25% and VACV mCherry inh -5%.
Screening CCCCCCNc1c([N+](=O)[O-])c(=O)sc2ccccc12 returned VACV Venus inh -25% and VACV mCherry inh -30%.
CN1CCN(c2ccc(S(=O)(=O)N3CCCCC3)cc2NC(=O)/C=C/c2ccc(OC(F)F)cc2)CC1 was read as VACV Venus inh 13µM* and VACV mCherry inh inconclusive.
For COc1ccc(-c2nc(CSCC(=O)NCCCN3CCCC3=O)c(C)o2)cc1OC the results were VACV Venus inh -8% and VACV mCherry inh inactive.
Screening CCOC(=O)c1cccc(N2C(=O)C3C4C=CC(CC4)C3C2=O)c1 (stereo unspecified) returned VACV Venus inh -13% and VACV mCherry inh -17%.
`N#CC(C#N)=c1ccc2c(c1)N1C3=C(CCCC3)CC3CCCCC31N=2` (stereo unspecified) gave VACV Venus inh 4%.
CCCOc1ccc(-c2cc(C(=O)NCC3CCCO3)c3ccccc3n2)cc1 (stereo unspecified) was read as VACV Venus inh -1% and VACV mCherry inh -5%.

Entries listed so far with a COOH group (three):
`Cc1ccn(C(CC(=O)c2ccc(Br)cc2)C(=O)O)n1` (stereo unspecified) gave VACV Venus inh -3% and VACV mCherry inh -16%.
O=C(O)C1=C[C@H](c2ccc(F)cc2)C[C@H](OCCCCO)O1 was read as VACV Venus inh -13% and VACV mCherry inh -14%.
`COCCNC(=O)c1onc(CSc2ccc(C)c(C)c2)c1C(=O)O` gave VACV Venus inh -12% and VACV mCherry inh -14%.

The results go on:
Screening COCCn1c(N)c(C(=O)NCC2CCCO2)c2nc3ccccc3nc21 (stereo unspecified) returned VACV Venus inh -14% and VACV mCherry inh -1%.
Cc1csc2nc(COC(=O)c3ccc(NC(=O)C(C)C)cc3)cc(=O)n12 was read as VACV Venus inh -22% and VACV mCherry inh inactive.
Screening CC(C)CC(=O)Nc1ccc2c(c1)nc(CCN1CCOCC1)n2C returned VACV Venus inh 3% and VACV mCherry inh inactive.
For Cc1nnc(NC(=O)CCN2C(=O)C3CC=CCC3C2=O)s1 (stereo unspecified) the results were VACV Venus inh -3% and VACV mCherry inh inactive.
